Cruzain inh noDet – inhibitors of Trypanosoma cruzi cruzain without detergent; P25779; purified cruzain, Z-FR-AMC fluorescence, no detergent; Potency, µM, without a hit: max response, negative = inhibition, most hits filed as inhibitors; hit rate 2.3% among 200,000; AID 1476;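 further: plate controls were enzyme without inhibitor for no effect and buffer without enzyme for full effect; nearly all actives have a fitted effect of over 40% in size; top concentration of the series not given in the record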
Target sequence (P25779 123-467 limits assumed): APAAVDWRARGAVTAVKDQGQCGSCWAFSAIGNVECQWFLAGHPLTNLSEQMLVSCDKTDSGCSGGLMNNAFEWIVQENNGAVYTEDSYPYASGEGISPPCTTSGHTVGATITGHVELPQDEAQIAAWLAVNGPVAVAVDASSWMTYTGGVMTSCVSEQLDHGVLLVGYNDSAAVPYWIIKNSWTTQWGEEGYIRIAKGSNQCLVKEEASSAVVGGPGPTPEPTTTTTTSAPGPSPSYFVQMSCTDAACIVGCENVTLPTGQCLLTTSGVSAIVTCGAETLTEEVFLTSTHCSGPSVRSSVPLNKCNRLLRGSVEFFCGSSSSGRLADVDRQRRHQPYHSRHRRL
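Purified cruzain at 1.5 nM, pre-incubated 15 min with compound at room temperature in 100 mM sodium acetate pH 5.5, 5 mM DTT, 0.00005% Triton X-100. Reaction started with 2 uM Z-FR-AMC; AMC fluorescence increase over 60 s gives rate.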
RE007 growth inh – less growth of the S. pombe RE007 Vpr strain; S. pombe RE007 Vpr strain, BacTiter-Glo ATP luminescence, 24 h; control for the full effect not named in the record; Potency, µM (highest dose often 92.2 µM), without a hit: at the highest dose activity change, negative = less growth; hit rate 0.21% among 360,000; AID 651644; active = well fitted falling curve with a large enough effect; inconclusive = small, poorly fitted or top-dose-only effect; inactive = no such curve, though single readings can be large or run the other way;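 further: on the % scale 0 is the no-effect control and ±100 the full control effect; nearly all actives have a fitted effect of over 50% in size; the assay follows cell death caused by Vpr and the record does not say whether a fall means rescue or toxicity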
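Fission yeast strain RE007, carrying one chromosomally integrated HIV-1 vpr copy, was seeded at OD 0.01 in PMG+AL medium with 23 nL pinned compound. After 24 h at 30 °C and 99% humidity, viability was read by BacTiter-Glo luminescence.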
Cruzain Triton – blocks cruzain activity in presence of Triton detergent. Potency, µM, for inactives: max response, negative = inhibition, most hits filed as inhibitors. hit rate 0.43% among 200,000. purified cruzain, Z-FR-AMC fluorescence, 0.01% Triton. P25779;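 further: plate controls were neutral wells for no effect and buffer without enzyme for full effect; nearly all actives have a fitted effect of over 40% in size; top concentration of the series not given in the record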
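Compounds were screened in titration against cruzain (1.5 nM) with 0.01% Triton X-100 to counter colloidal aggregation. Activity was the AMC fluorescence increase over 60 s after adding 2 uM Z-FR-AMC at pH 5.5.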
SARS PLpro yeast – inhibitors of SARS-CoV papain-like protease in yeast; S. cerevisiae expressing SARS-CoV PLpro, growth rescue; control for the full effect not named in the record; Potency, µM (highest dose often 32.9 µM), inactives show at the top dose activity, positive = growth rescue; hit rate 0.19% among 330,000; active means well fitted rising curve with a large enough effect; inconclusive means small, poorly fitted or top-dose-only effect; inactive means no such curve, though single readings can be large or run the other way; further: 0% is about no effect; nearly all actives have a fitted effect of over 55% in size; growth read by luminescence after 48 h
LASV entry inh – inhibitors of Lassa virus binding or cell entry | hit rate 1.2% among 300,000 | Lassa virus pseudotype entry inhibition, cell reporter; control for the full effect not named in the record | AID 540256 | Potency, µM (titrated, usually from 37.9 µM), without a hit: at the highest dose activity change, negative = inhibition, most hits filed as inhibitors; active means well fitted inhibition curve with a large enough effect; inconclusive means small, poorly fitted or top-dose-only effect, or effect the other way; inactive means flat fitted curve, though single readings scatter; tested in HEK293 cells; further: on the % scale 0 is the no-effect control and ±100 the full control effect; nearly all actives have a fitted effect of over 50% in size; luciferase read-out
2A StopGo – FMDV 2A StopGo reporter, luciferase signal; human cells with a luciferase reporter of 2A StopGo recoding; control for the full effect not named in the record; hit rate 1.2% among 410,000; Potency, µM (highest dose often 57.9 µM), without a hit: top-dose signal change, negative = less light; AID 1159524; active = well fitted falling curve with a large enough effect; inconclusive = small, poorly fitted or top-dose-only effect; inactive = no such curve, though single readings can be large or run the other way; tested in HEK293T cells; further: on the % scale 0 is the no-effect control and ±100 the full control effect; nearly all actives have a fitted effect of over 45% in size; luciferase light after 4 h
NS1 function inh – inhibitors of influenza NS1 protein function; S. cerevisiae slowed by influenza A NS1, growth recovery by OD600; Potency, µM (top dose mostly 46.1 µM), inactives show top-dose activity, positive = more growth; hit rate 0.4% among 270,000; AID 2326; active means well fitted rising curve with a large enough effect; inconclusive means small, poorly fitted or top-dose-only effect; inactive means no such curve, though single readings can be large or run the other way; further: nearly all actives have a fitted effect of over 50% in size
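OD600 was taken as the measure of yeast growth restored by compound in an NS1-expressing S. cerevisiae strain. Cells had been washed out of glucose medium and diluted 1:100 into galactose -URA medium, pH 6.0.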
Marburg entry inh – Marburg virus entry inhibition | Marburg virus pseudotyped entry inhibition, cell reporter; control for the full effect not named in the record; about a third of the inactives were read at about 46 µM | hit rate 1.8% among 300,000 | Potency, µM (titrated, usually from 37.8 µM), for inactives: at the top dose activity change, negative = inhibition, hits mostly inhibitors | AID 540276; active = well fitted inhibition curve with a large enough effect; inconclusive = small, poorly fitted or top-dose-only effect, or effect the other way; inactive = flat fitted curve, though single readings scatter; tested in HEK293 cells; about a fifth of its hits are not listed in these tables; further: on the % scale 0 is the no-effect control and ±100 the full control effect; luciferase read-out
* = called active by the depositor; ? = inconclusive; · = not tested or not shown; & = joins results of further samples; [ ] = another dose, or the depositor's remark. Unless noted, the call rests on the fitted dose curve; in most records, active means well fitted curve in the direction sought with a large enough effect; inconclusive means small, poorly fitted or top-dose-only effect, or another doubt; inactive means no such curve, though single readings can be large; an effect the other way counts as inactive or inconclusive. Potency means the concentration at half of the fitted maximal effect.

SMILES	Cruzain inh noDet	RE007 growth inh	Cruzain Triton	SARS PLpro yeast	LASV entry inh	2A StopGo	NS1 function inh	Marburg entry inh
Cn1c2c(c(=O)n(C)c1=O)[C@@H]1c3c(ccc4ccccc34)OC[C@@H]1CO2	3%	-2%	1.1%	-9%	-18%	-2%	-1%	3%
COc1ccc(CNC(N)=O)cc1	·	-13%	·	·	6%	-29%	·	-12%
S=C(Nc1ccc2nc(-c3ccccn3)c(-c3ccccn3)nc2c1)N1CCCCC1	·	-10%	·	0%	-17%[46.1 µM]	12%	-35%	?
O=C(CN1CCc2ccccc2C1)Nc1cc(S(=O)(=O)N2CCOCC2)ccc1N1CCOCC1	?	1%	-3.1%	0%	-12%	-11%	-4%	?
COc1ccc(C(=O)N2CCN(S(=O)(=O)c3ccc(C)cc3)CC2)cc1S(=O)(=O)N1CCOCC1	·	-8%	·	1%	·	11%	-7%	·
O=c1oc2cc(OCc3c(F)c(F)c(F)c(F)c3F)ccc2cc1-c1ccccn1	?	-3%	2.4%	0%	11%	2%	2%	-14%
CNC(=S)Nc1ccc2nc(C)c(C)nc2c1	-6%	5%	-8.0%	-4%	8%	5%	-10%	10%
CC1(C)c2ccccc2-c2nc3ccccc3cc2C1O (stereo unspecified)	·	-26%	·	3%	2%[46.1 µM]	35%[activator]	-8%	-2%[46.1 µM]
COC(=O)C1=C(O)/C(=C\c2cc(C)n(-c3ccc(F)cc3)c2C)N=C1C	·	-10%	·	-4%	1%	21%	·	?
COc1ccc(N(CC(=O)Nc2ccc(C)cc2)S(=O)(=O)c2c(C)noc2C)cc1	·	-8%	·	-2%	·	-23%	-17%	·
CCn1cc(C(=O)NCc2ccc(C)cc2)c(=O)c2cc(S(=O)(=O)N3CCCCCC3)ccc21	?	·	-3.0%	·	6.3µM*	-16%	·	·
CN(C)c1ccc(/C=N/Nc2nc3ccccc3o2)cc1	·	-8%	·	-1%	5.6µM*	?	-1%	?
O=C(Nc1ccccc1-c1nnc(SCc2ccccc2)o1)c1ccccc1	?	-1%	2.4%	0%	-16%	9%	20%	-29%
Cc1csc2c(N3CCN(C(=S)Nc4ccc(C(F)(F)F)cc4)CC3)ncnc12	·	4%	·	-9%	·	-8%	-3%	·
Cc1ccc(CN(Cc2cc3cccc(C)c3[nH]c2=O)C(=S)NCCCN(C)C)cc1	·	-10%	·	-1%	-12%	-15%	3%	4.5µM*
Cc1ccc(C(=O)Nc2c3c(nn2C(C)(C)C)CS(=O)(=O)C3)cc1C	-13%	12%	2.6%	3%	?	6%	7%	7%
CCSc1nnc(NC(=O)c2nc(S(=O)(=O)Cc3ccc(F)cc3)ncc2Cl)s1	·	4%	·	1%	?	8.9µM*	?	3%[46.1 µM]
C=CCSc1nnc(CCc2ccccc2)n1N	·	6%	·	-2%	-4%[46.1 µM]	2%	·	-7%
O=C(OCC(=O)N1CCc2ccccc2C1)c1cccs1	·	-11%	·	0%	-14%	68%[activator]	-6%	3%[14.2 µM]
Cc1cc(C)c(NC(=O)CN2C(=O)CC(C)S(=O)(=O)c3ccccc32)c(C)c1 (stereo unspecified)	·	3%	·	1%	-2%[46.1 µM]	-12%	13%	-12%[46.1 µM]
C=COCCNC(=S)Nc1ccccc1	·	6%	·	-1%	-6%	-7%	3%	4%[46.1 µM]
COc1ccc(F)cc1CSc1nnnn1-c1ccc(O)cc1	·	-11%	·	-6%	?	26%	-2%	?
O=C(/C=C/c1ccc(Br)cc1)NC(=S)Nc1ccc(S(=O)(=O)Nc2nccs2)cc1	-23%	2%	-0.6%	-16%	2%	30%[activator]	-4%	22%
CC(=O)NC12CC3CC(C1)CC(C(=O)N1CCN(c4ncccn4)CC1)(C3)C2	·	-4%	·	·	-5%	-21%	·	1%
Cc1cccc(NC(=O)[C@@H](CC(C)C)NC(=O)[C@@H]2Cc3ccccc3CN2)c1	·	-11%	·	-6%	·	26%	0%	·
O=C(CSc1nnc(-c2ccncc2)s1)Nc1ccccc1	·	-4%	·	8%	1%	-2%	1%	4%[46.1 µM]
COc1cccc(C(=O)C2CCCN(CC3=Cc4cc(OC)ccc4OC3)C2)c1 (stereo unspecified)	·	-17%	·	2%	?	?	-4%	?
COc1ccc(Cc2nnc(NC(=O)c3ccc(OC(C)=O)cc3)s2)cc1OC	·	-14%	·	0%	-23%[46.1 µM]	-14%	12%	-18%[46.1 µM]
Cc1cc(O)c(C(c2ccccc2)N2CCCCC2)c(=O)n1Cc1ccco1 (stereo unspecified)	?	·	1.4%	·	3%[46.1 µM]	-28%	·	·
CC(C)c1ccc(NC(=O)CCN2C(=O)[C@@H]3Cc4ccccc4CN3C2=O)cc1	·	13%	·	2%	-10%[46.1 µM]	2%	12%	?
COc1ccc(NC(=O)CN2C(=O)C(C)Oc3ccccc32)cc1OC (stereo unspecified)	·	4%	·	7%	4%	-29%	2%	-27%
CC1Cc2ccccc2N1C(=O)Cn1cnc2c1c(=O)n(C)c(=O)n2C (stereo unspecified)	·	-18%	·	10%	-6%	-20%	21%	-24%
CN(CC1CCOCC1)C(=O)CC1C(=O)NCCN1Cc1cccc(F)c1 (stereo unspecified)	·	-3%	·	5%	·	13%	20%	·
COc1ccc2cc(C3CC(c4ccco4)=NN3C(=O)CCC(=O)O)c(Cl)nc2c1 (stereo unspecified)	3%	-1%	-11%	16%	2%	11%	29%	?
CC(C)(C)C(=O)[C@H]1[C@H](c2ccccc2)[C@@]2(N=C(c3ccccc3)OC2=O)C2c3ccccc3C=NN21 (stereo partly specified)	?	0%	-9.8%	-10%	?	38%[activator]	?	?
CC(C)c1ccccc1NC(=S)NCc1ccccc1F	3%	5%	-3.4%	-7%	?	9%	9%	-5%
Cc1ccc(C(=O)N/C(=C\c2ccc3c(c2)OCO3)C(=O)N2CCOCC2)cc1	·	8%	·	0%	·	38%[activator]	-5%	·
COc1ccc(Br)cc1CN(C)C(=O)c1cc(Cl)c2c(c1)OCCO2	·	-7%	·	-43%	0%	7%	-2%	?
O=S(=O)(NCCN1CCOCC1)c1cccc(C(F)(F)F)c1	·	-8%	·	-2%	·	44%[activator]	-17%	·
C[C@H](NC(=O)C1CCN(S(=O)(=O)c2ccccc2)CC1)C(=O)NCc1ccc(Cl)c(Cl)c1	·	1%	·	2%	·	-29%	-16%	·
Cc1ccc(C)c(N2CCN(C(=O)Cc3ccc(NC4=NC5CS(=O)(=O)CC5S4)cc3)CC2)c1 (stereo unspecified)	·	-6%	·	4%	·	-10%	6%	·
O=C(N[C@@H](Cc1c[nH]c2ccccc12)C(=O)NC1CC1)c1ccccc1Cl	-5%	11%	-2.2%	6%	?	1%	4%	8%
COc1ccc(C(=O)Nc2ccccc2NC(=O)c2ccco2)cc1OC	-8%	-7%	3.0%	4%	-21%	-18%	-6%	0%
CCOc1ccc(NC(=O)CN(C)CC(=O)NC2CCCc3ccccc32)cc1OCC (stereo unspecified)	?	13%	0.8%	2%	2%	-18%	-9%	-3%&-3%
CS(=O)(=O)Nc1ccc(C(=O)NCCSCc2ccccc2)cc1	·	4%	·	1%	10%[46.1 µM]	-18%	6%	-3%[46.1 µM]
O=C(NNC(=O)c1ccccc1C(=O)O)c1cc2ccccc2o1	·	-3%	·	0%	·	-7%	-10%	·
CC[C@]12c3[nH]c4cc(-c5ccco5)ccc4c3CCN1C(=O)[C@@H](CC(=O)NCCCn1ccnc1)C[C@@H]2C(=O)N1CCN(C(=O)C2CC2)CC1	·	2%	·	-23%	·	-18%	·	7%
CC(C)C(NC(=O)c1ccc(Cl)cc1Cl)C(=O)NCCc1ccccn1 (stereo unspecified)	·	8%	·	-1%	12%	-23%	·	-6%
Cc1cc(Cl)ccc1OC(C)c1nnc(N)s1 (stereo unspecified)	1%	18%	0.5%	-14%	-10%	-26%	-15%	1%
CSc1cccc(N2CC(C(=O)NCCC3=CCCCC3)CC2=O)c1 (stereo unspecified)	·	-2%	·	3%	?	18%	·	6%

Looked up above.
For 2A StopGo, Cc1ccc(C(=O)N/C(=C\c2ccc3c(c2)OCO3)C(=O)N2CCOCC2)cc1 has 38%[activator]
For RE007 growth inh, CSc1cccc(N2CC(C(=O)NCCC3=CCCCC3)CC2=O)c1 (stereo unspecified) has -2%
For SARS PLpro yeast, O=S(=O)(NCCN1CCOCC1)c1cccc(C(F)(F)F)c1 has -2%
For Marburg entry inh, O=C(OCC(=O)N1CCc2ccccc2C1)c1cccs1 has 3%[14.2 µM]
For Cruzain inh noDet, CNC(=S)Nc1ccc2nc(C)c(C)nc2c1 has -6%
For Cruzain Triton, COc1ccc2cc(C3CC(c4ccco4)=NN3C(=O)CCC(=O)O)c(Cl)nc2c1 (stereo unspecified) has -11%

Four successive compounds out of the list so far, quoted:
SMILES	Cruzain inh noDet	RE007 growth inh	Cruzain Triton	SARS PLpro yeast	LASV entry inh	2A StopGo	NS1 function inh	Marburg entry inh
Cc1ccc(C)c(N2CCN(C(=O)Cc3ccc(NC4=NC5CS(=O)(=O)CC5S4)cc3)CC2)c1 (stereo unspecified)	·	-6%	·	4%	·	-10%	6%	·
O=C(N[C@@H](Cc1c[nH]c2ccccc12)C(=O)NC1CC1)c1ccccc1Cl	-5%	11%	-2.2%	6%	?	1%	4%	8%
COc1ccc(C(=O)Nc2ccccc2NC(=O)c2ccco2)cc1OC	-8%	-7%	3.0%	4%	-21%	-18%	-6%	0%
CCOc1ccc(NC(=O)CN(C)CC(=O)NC2CCCc3ccccc32)cc1OCC (stereo unspecified)	?	13%	0.8%	2%	2%	-18%	-9%	-3%&-3%

From PubChem BioAssay
